Screening data from PubChem.
PKD1 kinase inh = blocks activity of human protein kinase D1; 200,000 compounds, 0.056% hits; PKD1 kinase fluorescence polarization assay; Q15139; inhibition, %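 (about 10 µM by stock and volumes)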;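 active = inhibition of 50% or more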;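 also: controls were vehicle for no effect and a reference inhibitor for full effect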
Target sequence (Q15139 whole entry, looked up): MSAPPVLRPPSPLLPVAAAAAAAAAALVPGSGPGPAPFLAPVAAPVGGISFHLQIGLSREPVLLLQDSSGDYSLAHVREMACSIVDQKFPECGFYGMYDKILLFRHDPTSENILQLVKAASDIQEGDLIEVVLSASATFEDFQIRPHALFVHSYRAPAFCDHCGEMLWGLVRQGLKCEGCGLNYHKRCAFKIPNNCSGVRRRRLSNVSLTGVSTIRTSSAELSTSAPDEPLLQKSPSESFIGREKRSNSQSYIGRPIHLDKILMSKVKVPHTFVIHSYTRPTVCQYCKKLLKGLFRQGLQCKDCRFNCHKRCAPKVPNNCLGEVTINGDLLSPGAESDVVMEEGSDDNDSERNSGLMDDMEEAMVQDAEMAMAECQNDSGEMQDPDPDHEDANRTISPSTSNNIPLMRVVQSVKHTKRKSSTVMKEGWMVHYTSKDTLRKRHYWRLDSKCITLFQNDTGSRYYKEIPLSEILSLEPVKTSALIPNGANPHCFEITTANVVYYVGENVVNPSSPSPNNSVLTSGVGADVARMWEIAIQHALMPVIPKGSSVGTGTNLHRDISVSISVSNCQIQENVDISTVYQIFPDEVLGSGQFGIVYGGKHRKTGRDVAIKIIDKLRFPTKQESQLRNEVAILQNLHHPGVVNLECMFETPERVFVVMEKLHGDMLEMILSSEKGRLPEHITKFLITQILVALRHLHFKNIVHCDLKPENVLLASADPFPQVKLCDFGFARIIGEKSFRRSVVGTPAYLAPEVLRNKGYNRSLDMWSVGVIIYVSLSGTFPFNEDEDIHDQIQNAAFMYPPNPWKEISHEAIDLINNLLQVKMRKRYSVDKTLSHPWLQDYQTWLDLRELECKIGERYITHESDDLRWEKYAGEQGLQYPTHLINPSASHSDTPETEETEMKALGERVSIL
HSV augment = HSV replication enhancement. HSV replication augmentation in cells, fold increase. maximum fold increase. 220,000 compounds, 0.005% hits;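 active = peak rise of 1.5-fold or more in the series; inconclusive = self-fluorescent or not available for retest; tested in PC3 cells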;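 also: first round at 10 µM; read as green reporter fluorescence; hits show the peak of a series up to 25 µM; 1 = signal of infected wells without compound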
RGS16-Gao HTS = modulates binding between human RGS16 and Galphao; O15492+P09471; bead-based flow cytometry RGS16-Galphao binding, fluorescence; actives lie on both sides; binding response (% of control), % at 10 µM; 220,000 compounds, 0.38% hits;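 active = below 25% or above 175%, edge rows of some plates excepted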;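 also: Galphao activated by GDP with aluminum fluoride before binding; 100% = wells without compound and 0% = beads without RGS; some results beyond the cut were filed as inactive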
GALR2 agonist = activates the human galanin receptor 2; 140,000 compounds, 0.48% hits; activation, %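 (tested at 5 µM)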; O43603; GALR2-expressing cells, agonist activation read-out;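 active = above mean plus 3 SD of all compounds, about 5% in these data, not always enough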;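 also: 0% = vehicle buffer wells and 100% = reference agonist at full effect; tested in CHO reporter cells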
Insulin prom inh = TRM-6 insulin promoter activity inhibition; TRM-6 cells (human fetal islet line), insulin promoter-eGFP reporter, imaging; reporter expression induced with tamoxifen; inhibition, % at 2 µM; 130,000 compounds, 0.9% hits; AID 1273;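 active = inhibition above the mean plus 3 SD, with well images judged a real hit on visual review, cut at about 60% in these data, passing the limit was not always enough; inconclusive = inhibition over the cutoff but images rejected on review; inactive = inhibition not above the cutoff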
Insulin prom inh cell count = also measured in Insulin prom inh; calls as there; normalized cell count, %; measured here: cell count, toxicity; reference of the scale not given here;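 cells exposed to compound for 48 h; stained nuclei by imaging scaled within each plate; lower means fewer cells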
HSV augment primary fold = recorded beside HSV augment, whose call it bears; fold increase; compound at 10 µM; measured here: primary screen fold increase 10 uM; tested in PC3 cells;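 GFP signal in the first replicate; 1 = infected wells without compound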
The depositor's hits bear a star; i = inactive; ? = inconclusive; . = not tested or not shown.

Values run as follows: PKD1 kinase inh	HSV augment	HSV augment primary fold	RGS16-Gao HTS	GALR2 agonist	Insulin prom inh	Insulin prom inh cell count
O=C(N/N=C/c1ccc(C(F)(F)F)cc1)c1ccc(O)cc1
 : 2	i	0.82	100	.	.	.
CCC1(CC)C(=O)N(C)C(=O)NC1=NCc1ccccc1
 : -11	i	0.97	106	-2.5	-30	117
COc1cccc(NC(=O)COc2ccc(N3CC(C(=O)NCC(C)C)CC3=O)cc2)c1 (centres undefined)
 : -3	i	0.94	102	-1.7	-202	99
CCc1nnc(NC2=NCCC2)s1
 : 0	i	1	94	-0.8	57	91
CCOC(=O)C(C(=O)Nc1ccc(C)cc1)C1CCCCC1 (centres undefined)
 : 5	i	0.9	99	-1.3	12	103
Cc1ccc(C(=O)Nc2ccccc2C(=O)N2CC3(C)CC2CC(C)(C)C3)cc1 (centres undefined)
 : -4	i	0.99	98	0.4	-33	89
Cc1ccccc1NS(=O)(=O)c1cc(C(=O)NCCC2=CCCCC2)ccc1C
 : 1	i	0.8	101	-0.8	-4	122
Cc1cccc(NC(=O)CN2CCCN(S(=O)(=O)c3ccc(Br)s3)CC2)c1
 : -9	i	1.1	99	0.0	28	50
O=C1NN(c2ccccc2)C(=O)/C1=C/c1coc2ccccc2c1=O
 : 5	i	0.97	71	-0.9	30	44
COc1ccc(CN2CCN(C(=O)c3ccc4nc(N5CCOCC5)sc4c3)CC2)c(OC)c1OC
 : -8	i	0.95	113	.	-29	104
O=C(c1ccc(Cl)c(S(=O)(=O)N2CCCCCC2)c1)N1CCN(CCO)CC1
 : 2	i	1.1	108	-0.2	-19	86
CCOc1ccc2nc(SCC(=O)c3ccc(C)s3)sc2c1
 : -4	i	0.99	103	-0.8	-27	92
Cc1cc(N)n2ncc(-c3ccc(F)cc3)c2n1
 : -4	i	0.94	100	-2.8	89*	178*
COc1ccc(-c2cc(C(=O)N3CCN(c4ccccn4)CC3)c3ccccc3n2)cc1
 : 13	i	0.68	173	-1.9	.	.
CCOc1ccc(/C=N/NC(=O)c2ccc(Cn3cc(Br)cn3)o2)cc1
 : -5	i	1	103	-0.1	42	94
Cc1ccccc1C(=O)c1cccn1CC(=O)O
 : 7	i	1	121	-0.2	.	.
COc1ccc(/C=C/C(=O)OC2CCCN(C)C2)cc1 (centres undefined)
 : 7	i	0.83	100	.	29	96
Cc1cccn2c(=O)c(C=NCCO)c(NCc3ccco3)nc12
 : -14	i	0.97	102	-1.2	-9	118
c1cncc(-c2noc(C34CC5CC(CC(C5)C3)C4)n2)c1
 : 2	i	0.95	104	-1.0	29	82
O=C(NCc1ccco1)C1(c2ccccc2)CCCC1
 : -6	.	.	97	-0.6	12	229
CCCn1c(=O)[nH]c(=O)c2c1nc(-c1ccc(OC(F)F)c(OC)c1)n2CCOC
 : -3	i	0.91	97	-1.1	8	99
FC(F)(F)c1cnc(COc2cc(Cl)cc(Cl)c2)c(Cl)c1
 : .	i	0.99	99	.	.	.
CC(C)(C)c1ccc(-c2nc(NCc3cccnc3)c3ccccc3n2)cc1
 : -1	i	0.82	108	0.8	41	133
Cc1ccc(S(=O)(=O)N2CCC(=O)N(CCOCc3cccc(C(F)(F)F)c3)CC2)cc1
 : -10	i	0.87	47	-3.1	-27	92
CCOC(=O)c1[nH]c2ccc(OC)cc2c1NC(=O)CN1CCN(c2ccccn2)CC1
 : 3	.	.	95	0.1	-34	95
Cn1nc([N+](=O)[O-])nc1Oc1ccc(C(C)(C)C)cc1
 : 7	i	0.94	99	-0.8	-18	73
OCCC1CN(Cc2ccncc2)CCN1C1CCCC1 (centres undefined)
 : -1	i	0.99	100	.	.	.
Cc1cc(Cl)ccc1N(CC(=O)NCc1ccc2c(c1)OCO2)S(C)(=O)=O
 : -2	i	0.96	105	.	-39	33
CCOc1cc(-c2nc(C)c(C(C)=O)n2O)ccc1OCC(=O)Nc1cccc(C)c1
 : 3	i	1.1	113	.	-36	99
CSC(=NCc1ccco1)NC#N
 : .	i	0.94	100	.	.	.
CC(=O)c1cnc2cc(-c3cccc(Br)c3)nn2c1C
 : 2	i	0.91	89	.	-7	62
COC(=O)c1sc(NC(=O)COc2c(C)cccc2C)nc1C
 : 12	i	0.89	105	.	-13	127
Brc1ccc(-c2csc(NC3=NCCCCC3)n2)cc1
 : -3	i	0.9	174	-1.0	33	92
CCCCC(=O)Nc1ccc(NC(=O)c2cccs2)cn1
 : -9	i	0.95	90	-1.5	-47	126
Cc1ccc(C(=O)C(C)N(C(=O)c2ccc(Cl)cc2Cl)N2C(=O)CCCC2=O)cc1 (centres undefined)
 : -2	i	0.91	96	.	.	.
S=C(NCc1ccco1)N1CCN(c2ccccn2)CC1
 : -4	i	1	99	.	5	76
COc1cnc(SCc2c(Cl)cccc2Cl)nc1Cl
 : -4	i	0.83	100	-1.5	-22	47
Nc1[nH]ncc1-c1ccc(F)cc1
 : -5	i	1	110	.	-50	92
COc1ccc(N/C(=C(/C(Cl)=C(Cl)Cl)[N+](=O)[O-])n2nnc3ccccc32)cc1OC
 : 1	i	1	82	-0.7	-10	78
Cc1c(C(=O)N/N=C/c2ccccc2)sc(=S)n1C
 : -2	i	0.86	101	-3.0	50	127
CC(C)NC(=O)COc1ccc(S(=O)(=O)N2CCOCC2)cc1
 : -1	i	0.87	105	-1.6	38	91
Cc1ccsc1/C=N/NC(=O)c1ccco1
 : 0	i	0.96	92	-0.1	29	118
Fc1ccc(C2=Nn3c(Cc4ccccc4)nnc3SC2)cc1
 : -8	i	0.92	130	-0.3	18	166
Cc1ccc2cc(CN(Cc3nnnn3C3CCCC3)C3CCCCC3)c(=O)[nH]c2c1C
 : -4	i	1	103	-0.7	15	126
COc1ccc(C(C)=O)cc1COC(=O)c1ccc(N)c([N+](=O)[O-])c1
 : -2	i	0.96	96	.	-100	115
COC(=O)CC1C(=O)NC2CCCCC2N1C(=O)c1ccccc1 (centres undefined)
 : -10	i	1	111	-4.5	33	88
O=C(Nc1cc(Sc2ccccn2)cc([N+](=O)[O-])c1)c1cccc(F)c1
 : 3	i	0.77	117	-1.5	22	51
CCOC(=O)C1CCCN(C(=O)c2cc(Nc3ccc(OC)cc3OC)nc3ccccc23)C1 (centres undefined)
 : -2	i	0.85	103	-0.7	13	153
COc1cc(OC)cc(C(=O)N[C@H](C(=O)Nc2cccc(S(=O)(=O)N3CCCC3)c2)C(C)C)c1
 : .	i	0.98	96	.	.	.
COc1ccc(-c2[nH]c(-c3ccc(C)cc3)nc2SCC(=O)Nc2nccs2)cc1
 : -2	i	0.95	72	-2.4	29	58

The list goes on:
Values run as follows: PKD1 kinase inh	HSV augment	HSV augment primary fold	RGS16-Gao HTS	GALR2 agonist	Insulin prom inh	Insulin prom inh cell count
COc1ccc(-n2c(Cc3cccn3C)nnc2SCC(=O)Nc2ccc(C)c(Cl)c2)cc1
 : -4	i	0.69	105	-0.7	.	.
Nc1cccc(-c2nc3ccc(N)cc3s2)c1
 : -6	i	0.94	93	-1.4	30	70
COc1cccc(-c2csc(N3CCN(CC(=O)NNC(=O)c4ccc(Cl)cc4)CC3)n2)c1
 : -1	i	0.82	99	-1.2	27	78
CN(C)C(=O)c1ccc(Oc2ccc(C(=O)N(C)C)cc2)cc1
 : 10	i	0.93	110	-1.9	21	149
CCNc1ccc(S(=O)(=O)C(F)(F)F)cc1NC(=O)C12CCC(CC1)C2
 : -9	i	0.97	103	-1.2	33	79
O=c1cc(-c2ccccc2)n(S(=O)(=O)c2ccccc2)o1
 : -8	i	1.1	90	-1.8	-41	89
O=C(CCCOc1ccc(Cl)cc1Cl)NCC1CCCO1 (centres undefined)
 : -6	i	1	90	-3.3	-56	60
Cc1c(NCc2ccccc2O)c(=O)n(-c2ccccc2)n1C
 : .	i	0.87	102	.	.	.
COc1cc(C(=O)NC(=S)Nc2ccc(NC(=O)c3ccco3)cc2)cc(OC)c1OC
 : 8	i	0.88	67	1.3	-10	138
CCOC(=O)c1cc(-c2ccccc2)sc1NC(=O)c1ccc(OC)cc1
 : 8	i	0.91	83	-1.8	42	106
Cc1ccc2cccc(Oc3cnccn3)c2n1
 : 17	i	1.1	102	-2.5	.	.
CSc1nc(-c2ccccc2)c(-c2ccccc2)[nH]1
 : 1	i	1	108	-2.8	.	.
CC1CCc2c(sc3ncn(N)c(=N)c23)C1 (centres undefined)
 : .	i	0.86	98	.	.	.
Cc1ccccc1OC(C)c1nc(-c2ccccc2)no1 (centres undefined)
 : 4	i	0.99	105	-0.2	26	148
C=CCOC(=O)N1CCN(c2cccc(C(F)(F)F)c2)CC1
 : -12	i	0.98	97	-0.5	.	.
O=C(CCCc1cccs1)Nc1nccs1
 : 3	i	0.97	102	.	.	.
O=C1NCCCC1C(=O)N/N=C/c1cc([N+](=O)[O-])ccc1O (centres undefined)
 : .	i	0.74	91	.	.	.
C/C=C\C=C/C(=O)Nc1cccc(C2=NOC3(C2)C[C@@H](C(N)=O)N(C(=O)c2ccc(Cl)cc2)C3)c1 (some centres undefined)
 : .	i	0.88	92	.	.	.
CCOc1cc(N2CCOCC2)c(OCC)cc1NC(=O)CCS(=O)(=O)c1ccc(Cl)cc1
 : 1	i	0.94	99	-0.9	.	.
O=C(/C=C/c1ccccc1)N/C(=C/c1ccccc1)C(=O)Nc1ccc(C(=O)O)cc1
 : -9	i	0.97	97	-2.8	-19	97

Another view of part of the listing above.
CSc1nc(-c2ccccc2)c(-c2ccccc2)[nH]1
  PKD1 kinase inh = 1; HSV augment = i; HSV augment primary fold = 1; RGS16-Gao HTS = 108; GALR2 agonist = -2.8; Insulin prom inh = .; Insulin prom inh cell count = .

CCOc1cc(N2CCOCC2)c(OCC)cc1NC(=O)CCS(=O)(=O)c1ccc(Cl)cc1
  PKD1 kinase inh = 1; HSV augment = i; HSV augment primary fold = 0.94; RGS16-Gao HTS = 99; GALR2 agonist = -0.9; Insulin prom inh = .; Insulin prom inh cell count = .

Cc1ccccc1OC(C)c1nc(-c2ccccc2)no1 (centres undefined)
  PKD1 kinase inh = 4; HSV augment = i; HSV augment primary fold = 0.99; RGS16-Gao HTS = 105; GALR2 agonist = -0.2; Insulin prom inh = 26; Insulin prom inh cell count = 148

Additional entries
Values run as follows: PKD1 kinase inh	HSV augment	HSV augment primary fold	RGS16-Gao HTS	GALR2 agonist	Insulin prom inh	Insulin prom inh cell count
CC(C)NC(=O)/C(=N\O)c1ccccc1
 : -1	i	0.9	100	-1.1	-30	105
O=C(Cn1c(=S)[nH]c2ccccc2c1=O)N1CCN(c2ccccc2)CC1
 : 3	i	0.97	131	.	.	.
O=C(O)COCC(=O)Nc1ccc2c(c1)CCC2
 : -8	i	0.94	97	-1.2	.	.
CCCCN1CCc2c([nH]c3ccccc23)C1=O
 : 1	i	0.96	103	-0.1	18	126
COCCn1c(SCC(=O)Nc2cccc(S(N)(=O)=O)c2)nc2ccccc21
 : 0	i	0.95	59	-0.6	34	106
COc1ccccc1-c1nnc(SC/C(O)=C(\C#N)c2nc3ccccc3[nH]2)n1C1CCCCC1
 : -10	i	0.96	101	-0.8	-57	166
COc1ccc(-c2csc(NC(=O)c3cc(=O)c4ccccc4o3)n2)cc1OC
 : 2	i	0.85	101	.	.	.
CCn1c(=O)cc(SCC(=O)N2CCN(c3ccccc3F)CC2)c2ccccc21
 : -9	i	0.92	112	-2.6	21	96
C=C(C)C1CC=C(CN2CCC(C(=O)OCC)CC2)CC1 (centres undefined)
 : 11	i	1	229	1.0	-77	76
Cn1c(-c2ccc(F)cc2)cnc1NCc1ccccc1
 : 4	i	0.89	102	-1.3	-21	211
COc1cc(C2C(C#N)=C(N)OC3=C2C(=O)CCC3)c([N+](=O)[O-])cc1OC (centres undefined)
 : 4	?	.	93	-1.8	.	.
CCC(CC)C(=O)N=C1SC2CS(=O)(=O)CC2N1CCc1ccc(OC)c(OC)c1 (centres undefined)
 : .	i	1.1	94	.	.	.
CN(C)C(=O)CSc1cccc2cccnc12
 : 2	i	0.58	99	-0.5	-54	39
CN(C)C(=O)CSC1c2ccccc2C(=O)N1c1ccccc1 (centres undefined)
 : -8	i	1.2	-8	-0.4	17	81
Cc1cccc(S(=O)(=O)C(C#N)c2nc3ccccc3nc2N2CCOCC2)c1 (centres undefined)
 : 6	i	0.92	111	-0.7	.	.
Cc1nn(-c2ccccc2)c(Cl)c1/C=C1\SC(=S)NC1=O
 : -2	i	1	99	-1.6	-29	128
COC(=O)N/N=C\c1c(C)[nH]n(-c2ccccc2)c1=O
 : -2	i	1.2	98	.	.	.
O=C(O)c1ccc(N2C(=O)CC(SC(=NCc3ccc4c(c3)OCO4)Nc3ccccc3)C2=O)cc1 (centres undefined)
 : .	i	0.88	99	.	.	.
CCc1nnc(NC(=O)CSc2nnc(CNc3ccc(Cl)cc3)o2)s1
 : -6	i	0.99	62	1.2	29	111
CC(C)COC(=O)C(C)Nc1n[nH]c(=S)[nH]c1=O (centres undefined)
 : -2	i	0.95	112	.	3	59
